Bead autofluor: compound fluorescence in toxin protease inhibitor counterscreen; compound autofluorescence counterscreen, microsphere flow cytometry; stronger effect = higher value; fluorescence intensity (concentration not given with the values); 3.1% of 360,000 active; AID 624483;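 active means at least 3 SD above the mean of all compounds, about 16000 in these data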;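 further: 100 nL of 1 mM stock went into each well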
Mtb hypoxia rep: inhibitors of hypoxia-regulated fluorescent reporter in Mycobacterium tuberculosis. 0.1% of 300,000 active. AID 1159583. M. tuberculosis hypoxia-regulated fluorescent reporter, fluorescence. fluorescence inhibition, % (concentration not given with the values);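 active means 35 to 45% if threefold the growth effect, above 45% if 1.5-fold the growth effect; inactive means the rest, general growth blockers included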;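 further: wells of about 50 µL received 100 nL stock; 0% = vehicle wells and 100% = reference inhibitor wells; whole bacteria with a GFP reporter of the hypoxia response; strong numbers were not always called active; many hits fall short of the cut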
PrP UTR inh: inhibition of PrP 5' UTR reporter expression | 0.35% of 340,000 active | cell-based PrP 5' UTR mRNA reporter, plate reader | AID 488862 | inhibition, % (no concentration beside the values);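 active means every replicate at 50% or more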;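 further: 0 = median of the neutral control wells; tested in H4 reporter cells; numbers are from one replicate; inactives centre near -14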
Sa ugtP lethal: compounds lethal to S. aureus RN4220 ugtP deletion mutant; OD600 growth, 16 h; some inactives read as strong as hits; growth inhibition, % (concentration not given with the values); 0.54% of 330,000 active; AID 1259309;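 active means z-score under -3 and OD600 up to 0.15 on both plates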;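 further: plate controls were untreated wells for no effect and antibiotic for full effect; wells of about 80 µL received 100 nL stock; the first replicate is given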
Sa RN4220 lethal: S. aureus RN4220 growth inhibition. OD600, 16 h. inhibition, % (no concentration beside the values). 0.33% of 330,000 active. AID 1259311;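 active means z-score of -3 or lower and OD600 up to 0.18 on both plates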;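 further: plate controls were untreated cells for no effect and reference antibiotic for full effect; stock transfer was 100 nL into about 80 µL; one replicate is shown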
BJeLR viability: BJeLR cell viability loss | BJeLR (HRASV12) viability, CellTiter-Glo ATP luminescence, 48 h; reference of the scale not given here | inhibition, % (test concentration not listed) | 0.17% of 300,000 active | AID 1554;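 active means replicate mean above 50%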;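 further: 50 nL library stock added to about 25 µL; numbers are from one replicate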
Mtb hypoxia rep growth: further read-out of Mtb hypoxia rep, marked with its call; growth inhibition, %; measured here: M. tuberculosis growth (absorbance);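 0% = vehicle and 100% = reference antibiotic; read after six days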
An asterisk follows results filed as active; · = no result given.

Values in the order: Mtb hypoxia rep | PrP UTR inh | BJeLR viability | Sa ugtP lethal | Bead autofluor | Mtb hypoxia rep growth | Sa RN4220 lethal
C=C1CCN(c2ccc(C(=O)NCCC)cc2[N+](=O)[O-])CC1
    8 | -6 | 3 | 1 | 3778 | 5 | 4.1
O=C(CNCC1CCCO1)NCc1ccco1 (configuration not stated)
    0 | -10 | 3 | 7 | 4808 | 11 | -0.8
O=C(CN1C(=O)C2C3C=CC(C3)C2C1=O)Nc1ccc(C(=O)O)cc1 (configuration not stated)
    10 | -10 | 19 | 6 | 9848 | 8 | 6.1
COC(=O)c1cnc(SCC(=O)c2ccccc2)n1C
    12 | -29 | 8 | 0 | 3731 | -1 | 2.1
CCc1ccccc1N1C(=O)CN(Cc2cc(OC)c(OC)c(OC)c2)C1=S
    -3 | -13 | -5 | 1 | 3425 | 7 | 4.9
CCC(C)NC(=O)c1ccccc1NS(=O)(=O)c1ccc(OC)c(OC)c1 (configuration not stated)
    · | -10 | 5 | -2 | 2980 | · | 0.6
CC(C)(CO)Nc1ncnc2onc(-c3ccc(F)cc3)c12
    -12 | 3 | -4 | -3 | 4269 | -2 | -0.2
Cc1cc(NC(C)c2ccccc2)n2ncc(-c3ccccc3)c2n1 (configuration not stated)
    0 | -57 | 2 | 71 | 3593 | 3 | -9.7
CCOC1=NN(c2ccccc2)C(=O)C1=CN(C)C
    3 | · | · | -7 | · | 4 | 5.9
Nc1nc(=S)n(-c2ccccc2)[nH]1
    12 | -14 | -17 | 6 | 4596 | 13 | 18
CCn1cc(C=C2SC(=O)N(CC(=O)Nc3ccc4c(c3)OCO4)C2=O)c2ccccc21
    0 | · | · | -8 | · | 2 | 5.9
COc1ccc(C(=O)NN=C2CCCC2)c(OC)c1
    8 | -15 | -1 | 7 | 4845 | -4 | 1.3
CCOC(=O)N1CCN(C(=O)CN(c2ccc(C)c(C)c2)S(=O)(=O)c2ccccc2)CC1
    12 | -29 | -2 | 1 | 3971 | 19 | 4.7
CCOc1cc(C#N)ccc1OCC(=O)NNC(=O)CC1CCS(=O)(=O)C1 (configuration not stated)
    3 | -15 | · | 3 | 5936 | -1 | 4.4
Cc1ccc(CC2CC(=O)N(Cc3ccco3)C2=O)cc1 (configuration not stated)
    13 | -13 | -1 | 0 | 2712 | 13 | -14
O=C(C[n+]1ccccc1)N/N=C/c1ccccc1F
    · | -24 | 4 | · | 4975 | · | ·
Cc1cc(=O)oc2cc(OCC(=O)NC3CCN(Cc4ccccc4)CC3)c(Cl)cc12
    2 | 0 | -8 | 0 | 6636 | 0 | 0.4
Cc1nnc(NC(=O)CSc2ncnc3c2cnn3-c2ccccc2C)s1
    5 | 1 | 5 | 0 | 8965 | 5 | 4.4
Cc1onc(-c2c(F)cccc2Cl)c1C(=O)NC(=S)Nc1c(C)n(C)n(-c2ccccc2)c1=O
    · | -3 | 4 | · | 3605 | · | ·
CN1CCC(=O)N([C@H](CN=[N+]=[N-])c2ccccc2)CC1
    · | -16 | -4 | · | 3891 | · | ·
COc1ccc(S(=O)(=O)c2ccccc2)cc1NS(=O)(=O)c1cccc(C(=O)O)c1
    -7 | -20 | · | 9 | 3951 | -1 | 4.4
Cc1ccc(C)c(C(=O)N(Cc2nc(-c3ccc(Cl)cc3)no2)C(C)C)c1
    11 | -20 | -9 | 10 | 4936 | 7 | -0.5
O=c1c2ccccc2nc(Cc2ccccc2)n1-c1ccc(O)cc1
    11 | -1 | 4 | -7 | 3101 | 13 | 7.7
O=C(COC(=O)c1cc(=O)[nH]c2ccccc12)c1ccc(Br)cc1
    -2 | -25 | -3 | -2 | 6599 | 5 | 2.3
O=[N+]([O-])c1ncccc1OCc1ccccc1Br
    3 | -10 | 2 | 13 | 5503 | -5 | 7.9
Cc1cc(CNC(=O)C(C)Cc2ccccc2)nn1C (configuration not stated)
    7 | -10 | -8 | 12 | 4109 | 4 | 4.4
CSCC[C@H](NC(=O)[C@H](Cc1ccccc1)n1c(=O)[nH]c2ccccc2c1=O)C(=O)N[C@@H](Cc1ccccc1)C(=O)O
    · | -37 | -1 | -7 | 5457 | · | 5.7
Cc1[nH]c(=O)[nH]c(=O)c1/C=N/NC(=O)CCCCCNC(=O)OC(C)(C)C
    · | -12 | 5 | · | 4512 | · | ·
COc1ccc(/C=C/c2nnc(NC(=O)CSc3ccc(Cl)cc3)s2)cc1
    · | -31 | -5 | · | 2323 | · | ·
CCOc1ccccc1NC(=O)CC1Nc2ccccc2NC1=O (configuration not stated)
    · | -18 | -6 | -13 | 3639 | · | 9.0
O=C1OC(Cc2ccncc2)C(O)=C1C1=NCCCN1 (configuration not stated)
    9 | -9 | 4 | 10 | 2367 | 1 | 3.6
O=c1oc2ccc([N+](=O)[O-])cc2c(N2CCOCC2)c1[N+](=O)[O-]
    10 | · | -5 | 2 | · | 0 | 3.5
COC(C(=O)Nc1cc([N+](=O)[O-])ccc1C)c1ccccc1 (configuration not stated)
    11 | -6 | -3 | 5 | 4249 | 11 | 3.5
CCOC(=O)CCc1c(C)c2ccc(OCC(=O)N(CC)CC)c(C)c2oc1=O
    -18 | -22 | 4 | -7 | 10974 | -6 | -3.3
COc1ccc(OC)c(S(=O)(=O)Nc2cccc(O)c2)c1
    -7 | -20 | 3 | 8 | 4111 | 3 | 4.6
CN(C)Cc1c(O)ccc2[nH]cnc12
    · | -15 | 0 | 7 | 2816 | · | -1.4
CCN(CC)S(=O)(=O)c1ccc2c(c1)nc(CCC(=O)OCc1c(C)noc1C)n2C
    -5 | -13 | 3 | -3 | 3089 | 4 | 4.1
O=C(NCc1ccncc1)C(=O)NCC1OCCN1S(=O)(=O)c1cc(F)ccc1F (configuration not stated)
    3 | -8 | 1 | 0 | 5650 | 1 | 1.2
O=C(N/N=C1\CC2CC=CC12)c1ccc(Br)cc1 (configuration not stated)
    · | -13 | -2 | · | 3804 | · | ·

Rewritten field by field: entries from further up
O=C(N/N=C1\CC2CC=CC12)c1ccc(Br)cc1 (configuration not stated)
  Mtb hypoxia rep: ·
  PrP UTR inh: -13
  BJeLR viability: -2
  Sa ugtP lethal: ·
  Bead autofluor: 3804
  Mtb hypoxia rep growth: ·
  Sa RN4220 lethal: ·

COc1ccc(OC)c(S(=O)(=O)Nc2cccc(O)c2)c1
  Mtb hypoxia rep: -7
  PrP UTR inh: -20
  BJeLR viability: 3
  Sa ugtP lethal: 8
  Bead autofluor: 4111
  Mtb hypoxia rep growth: 3
  Sa RN4220 lethal: 4.6

CCN(CC)S(=O)(=O)c1ccc2c(c1)nc(CCC(=O)OCc1c(C)noc1C)n2C
  Mtb hypoxia rep: -5
  PrP UTR inh: -13
  BJeLR viability: 3
  Sa ugtP lethal: -3
  Bead autofluor: 3089
  Mtb hypoxia rep growth: 4
  Sa RN4220 lethal: 4.1

Reprinted at random: five entries already listed, in no set order.
Values in the order: Mtb hypoxia rep | PrP UTR inh | BJeLR viability | Sa ugtP lethal | Bead autofluor | Mtb hypoxia rep growth | Sa RN4220 lethal
O=C1OC(Cc2ccncc2)C(O)=C1C1=NCCCN1 (configuration not stated)
    9 | -9 | 4 | 10 | 2367 | 1 | 3.6
CN(C)Cc1c(O)ccc2[nH]cnc12
    · | -15 | 0 | 7 | 2816 | · | -1.4
O=C(N/N=C1\CC2CC=CC12)c1ccc(Br)cc1 (configuration not stated)
    · | -13 | -2 | · | 3804 | · | ·
CCN(CC)S(=O)(=O)c1ccc2c(c1)nc(CCC(=O)OCc1c(C)noc1C)n2C
    -5 | -13 | 3 | -3 | 3089 | 4 | 4.1
COC(C(=O)Nc1cc([N+](=O)[O-])ccc1C)c1ccccc1 (configuration not stated)
    11 | -6 | -3 | 5 | 4249 | 11 | 3.5

No enrichment for hits, and some 4% of all compounds hit somewhere here.
